Vaccinia Venus: qHTS for Stage-Specific Inhibitors of Vaccinia Orthopoxvirus: Venus Reporter Primary qHTS; Vaccinia virus Venus reporter expression, fluorescence; Potency, µM (doses to about 36.5 µM), without a hit: at the top dose activity change, negative = inhibition, hits mostly inhibitors; 330,000 compounds, 0.46% hits; AID 720580, 2013; active means well fitted inhibition curve with a large enough effect; inconclusive means small, poorly fitted or top-dose-only effect; inactive means no such curve, though single readings can be large or run the other way; tested in A549 cells; also: nearly all actives have a fitted effect of over 30% in size; inactives centre near -10
Vaccinia mCherry: qHTS for Stage-Specific Inhibitors of Vaccinia Orthopoxvirus: mCherry Reporter Primary qHTS | Potency, µM (series often up to 36.5 µM), inactives show top-dose activity change, negative = inhibition, usual class: inhibitors | 310,000 compounds, 0.63% hits | Vaccinia virus mCherry reporter infection, fluorescence; about a quarter of the inactives have no number; active = well fitted inhibition curve with a large enough effect; inconclusive = small, poorly fitted or top-dose-only effect; inactive = no such curve, though single readings can be large or run the other way; tested in A549 cells; also: nearly all actives have a fitted effect of over 35% in size; inactives centre near -10
The depositor's hits bear a star; i = inactive; u = inconclusive; x = no result given; & = joins results of further samples; [ ] = another dose, or the depositor's remark. % is scaled to controls: 0 for no effect and ±100 for the full control effect; potency is read from the fitted curve at half-maximal effect. The order is random. Share with any hit: about 0.86%.

Sequence of screens – Vaccinia Venus	Vaccinia mCherry
- COC(=O)c1ccccc1NC(=O)C1CCCN(S(=O)(=O)c2ccc(F)cc2)C1 (configuration not stated)
→ -16%	x
- COc1cccc(NC2c3ccccc3C(=O)N2Cc2ccco2)c1 (configuration not stated)
→ -3%	2%
- CC(C)C(c1nnnn1C(C)(C)C)N1CCN(c2cccc(Cl)c2)CC1 (configuration not stated)
→ -8%	-12%
- CCC(C)NC(=O)c1ccccc1NC(=O)c1ccc(CSc2ccccc2)cc1 (configuration not stated)
→ -16%	-12%
- C/C(Cl)=C\Cn1c(Nc2cccc(C)c2)nc2c1c(=O)n(C)c(=O)n2C
→ -15%	-12%
- CS(=O)(=O)N1CCc2cc(C(=O)Nc3ccc(C(F)(F)F)cc3)ccc21
→ -14%	-13%
- COc1ccccc1N1CCN(C2=NS(=O)(=O)c3ccccc32)CC1
→ -11%	-11%
- CCOc1ccc(C2CC(c3ccccc3C)n3nc(N)nc3N2)cc1 (configuration not stated)
→ 0%	-2%
- c1ccc(-c2cn3nc(-c4ccccc4)sc3n2)cc1
→ -15%	-6%
- Cc1ccc(CN2CCSc3ccc(C(=O)Nc4ccc(C)cc4)cc32)cc1
→ -17%	i
- N#Cc1ccc(OCC(=O)NN2Cc3ccccc3C2=N)cc1
→ 1%	-5%
- CCCCCCSc1cccc(-c2nc3cc(C)ccn3c2NC2CCCCC2)c1
→ -26%	-1%
- Cc1cc(C)c(CN2CCC(n3nccc3NC(=O)c3ccccc3Cl)CC2)cc1C
→ -24%	-2%
- COc1cc2c(cc1OC)CN(CC(=O)Nc1ccc(F)cc1)C(C(=O)O)C2 (configuration not stated)
→ -11%	-14%
- NS(=O)(=O)c1ccc(NC(=O)COC(=O)/C(=C/c2cccs2)c2cccs2)cc1
→ 0%[7.34 µM]	33%[activator][7.34 µM]
- COc1cccc(C(=O)c2cn(CC(=O)NCc3ccccc3Cl)c3nc(C)ccc3c2=O)c1
→ -16%	-19%
- COc1ccc(-c2nn(-c3ccccc3)cc2/C=N/NC(=O)c2ccc(Br)o2)cc1
→ -30%	-22%
- Cc1ccc(C)c(N2CCN(C(=O)CCc3nc(-c4cccc(F)c4)no3)CC2)c1
→ 2%	-1%
- CC(C)C(=O)N[C@@H]1c2ccccc2CC[C@@H]1O
→ -4%	i
- CCCNC(=O)NCCc1c(C)[nH]c2ccccc12
→ -20%	-10%
- Nc1nc(N)c2c(ccc3nccc32)[nH]1
→ u	u
- Cc1cccc(NC(=O)NCc2ccc3[nH]c(C)cc3c2)c1
→ -11%	i
- COc1ccc(-c2noc(N3CCC(C(=O)NCc4ccccc4Cl)CC3)n2)cc1
→ u	-8%
- Cc1cc(C)n(C2CCCCC2OC(=O)c2ccccc2)n1 (configuration not stated)
→ -11%	x
- O=C(c1cccc(S(=O)(=O)Nc2ccccc2Cl)c1)N1CCCCCC1
→ -11%	i
- Cc1nnc(SC(C(=O)c2ccccc2)c2ccccc2)[nH]c1=O (configuration not stated)
→ -7%	-20%
- O=C(Nc1ccc(Oc2ccccc2)cc1)C1CCN(S(=O)(=O)c2ccc(Cl)cc2)CC1
→ -6%	-17%
- Cc1cccc(N=Nc2c(O)[nH]c3ccc(Br)cc23)c1
→ -13%	-24%
- CNC(=O)c1ccc2nc(Cc3ccccc3)oc2c1
→ 11%	-5%
- O=C1c2ccccc2C(=O)N1CCCCSc1nc2ccccc2o1
→ -15%	x

Full records from above. Order of screens: Vaccinia Venus | Vaccinia mCherry
Cc1cc(C)c(CN2CCC(n3nccc3NC(=O)c3ccccc3Cl)CC2)cc1C is listed with -24% | -2%
COc1cc2c(cc1OC)CN(CC(=O)Nc1ccc(F)cc1)C(C(=O)O)C2 (configuration not stated) is listed with -11% | -14%
CC(C)C(=O)N[C@@H]1c2ccccc2CC[C@@H]1O is listed with -4% | i

Remaining list, next part:
Sequence of screens – Vaccinia Venus	Vaccinia mCherry
- CCc1ccc2[nH]cc(S(=O)(=O)c3ccc(C(C)C)cc3)c(=O)c2c1
→ -10%	-7%
- CC(C)c1ccc(O)c(NC(=S)NC(=O)c2cccnc2)c1
→ -14%	-21%
- CCCCNS(=O)(=O)c1ccc(NC(=O)Cc2ccc(OC)cc2)cc1
→ -17%	-5%
- Cc1cc2c(cc3c(SCc4cccc(Cl)c4)nnc(C)n32)o1
→ -14%	-7%
- Cc1cc(C)cc(-c2nnc(SCC(=O)N3CCN(C(=O)c4ccco4)CC3)o2)c1
→ u	8.9µM*
- CC1CCCN(S(=O)(=O)c2ccc3oc(=O)ccc3c2)C1 (configuration not stated)
→ -5%	-14%
- O=C(C(Cc1ccccc1)n1cccc1)N1CCN(Cc2ccccc2)CC1 (configuration not stated)
→ -20%	-11%
- CCN(CC)C1CC(=O)N(c2cccc(Cl)c2)C1=O (configuration not stated)
→ -13%	i
- C=CCOc1ccc(C2NC(=O)NC(C)=C2C(=O)OC)cc1 (configuration not stated)
→ -9%	-8%
- O=C(Nc1ccc(F)cc1)C1CC(=O)n2ncnc2N1 (configuration not stated)
→ 9%	-4%
- C=CCN(c1ccccc1OC)S(=O)(=O)c1cccc(C(=O)OC2CCOC2=O)c1 (configuration not stated)
→ 2%	-5%
- Cn1cc(S(=O)(=O)CC(=O)N2CCCc3ccccc32)c2ccccc21
→ -14%	i
- COC(=O)CC1=NN(c2ccc(OC)cc2)C(=O)C1
→ 7%	i
- COc1cccc(CN2CC(C(=O)NCCc3nccs3)CCC2=O)c1 (configuration not stated)
→ -9%	i
- NC(=S)NC(=O)/C=C/c1ccccc1
→ u	u
- Cc1cccc(C(=O)O)c1[N+](=O)[O-]
→ -10%	-15%
- O=C1/C(=C/c2ccco2)Oc2c1ccc(O)c2CN1CCCCC1
→ -3%	i
- COC(=O)c1cn(Cc2ccc(F)cc2)c2ccccc12
→ -16%	i
- COc1cccc(-c2cccc(-c3nc(C(=O)Nc4ccc(-c5ccccc5)cc4)cc4c3[C@H](CCO)N(S(=O)C(C)(C)C)C4)c2)c1 (some centres not stated)
→ -8%	12%
- CC(=O)OC1CCC2(C)C(=CC=C3C2CCC2(C)C3CCC2C(C)/C=C/C(C)C(C)C)C1(C)C (configuration not stated)
→ -15%	-2%
- CCN(CC(=O)Nc1c(F)cccc1F)C(=O)CCNC(=O)c1ccco1
→ -7%	i
- COc1cc2c(cc1OC)CN(C(=O)/C=C/c1ccc(F)cc1)CC2
→ -5%	-28%
- CCOC(=O)C1=C(c2ccccc2)N=c2s/c(=C\c3cc(OC)c(OC)c(OC)c3)c(=O)n2C1c1cccs1 (configuration not stated)
→ -12%	-6%
- COC(=O)CNC(=O)CN1C(=O)N(c2ccccc2)C(N(O)C(=O)Nc2ccccc2)C1(C)C (configuration not stated)
→ -7%	x
- COC(=O)c1sccc1NC(=O)/C=C/C(=O)O
→ -20%	i
- NNC(=O)c1cccc(COc2ccc(Br)cc2)c1
→ -13%	-25%
- COc1ccc(C(=O)N2CCC(=O)N(C(CO)Cc3ccccc3)CC2)cc1 (configuration not stated)
→ -13%	i
- Cc1cc(=O)n(Cc2c(F)cccc2Cl)c2c1c(C)nn2-c1cccc(F)c1
→ -5%	-1%
- C[C@@H]1CN([C@@H](C)CO)S(=O)(=O)c2ccc(C#CC3CCCCC3)cc2O[C@@H]1CN(C)Cc1cccnc1
→ 10µM*	u
- CN(C)c1ccc(/C=N/Nc2cc(N3CCOCC3)nc(N3CCOCC3)n2)cc1
→ 11%	-10%
- CSc1ccc(S(=O)(=O)N2CCC(C(=O)Nc3ccccc3C(F)(F)F)CC2)cc1
→ -9%	i
- CCOc1ccc(-n2c(SCC(=O)Nc3nccs3)nnc2-c2ccoc2C)cc1
→ -16%	u
- O=C(CN1CCOCC1)Nc1scc2c1c(=O)oc1ccccc12
→ -15%[7.34 µM]	i[7.34 µM]
- O=C(Cc1ccc(Br)cc1)N1CCOCC1
→ -12%	-17%
- Nc1nc(N)c(Cc2ccc(Cl)cc2Cl)c(N)n1
→ -13%	-21%
- Cc1ccc2c(CN3CC(C)CC(C)C3)cc(=O)oc2c1C (configuration not stated)
→ -10%	-5%
- Cc1ccc(Nc2cccc(C(F)(F)F)c2)nn1
→ -5%	-15%
- CC(NC(=O)c1cc2ccccc2oc1=O)c1ccc(O)cc1 (configuration not stated)
→ 2%	-13%
- CCOc1ccc(CCNC(=O)C(C)n2nc(C)n3c(cc4occc43)c2=O)cc1OCC (configuration not stated)
→ 8%&-18%	-7%&-20%
- Cc1ccnc(NC(=O)CCC(=O)N(CC(=O)NC2CCCCC2)Cc2cccs2)c1
→ 3%	-2%
- COC(=O)c1[nH]c2ccc(F)cc2c1NC(=O)CCN1CCN(Cc2ccc3c(c2)OCO3)CC1
→ u	-15%
- Cc1ccc(NC(=O)N2CCN(c3nnc(C)c4c(C)n(-c5ccccc5)nc34)CC2)cc1Cl
→ -7%	-7%
- Cc1ccc(NC(=O)CN(C)C(=O)COc2cccc3cccnc23)cc1
→ 2%	-27%
- COc1ccc(-c2cc(C(F)(F)F)n3nc(C(=O)Nc4sc5c(c4C(=O)OC(C)C)CCC(C)C5)cc3n2)cc1 (configuration not stated)
→ 1%	-9%
- CC(=O)c1ccc(OCC(=O)N2CCCC(Nc3ccc(C)c(C)c3)C2)cc1 (configuration not stated)
→ -11%	-16%
- CCOc1cc(C(=O)NC(=S)Nn2cnnc2)cc(OCC)c1OCC
→ -1%	-13%
- COc1cc(C(=O)OC(C)CN2C(C)CCCC2C)cc(OC)c1OC (configuration not stated)
→ -10%	i
- Clc1ncc(CN2CCN(c3ccccc3)CC2)s1
→ -20%	-9%
- O=[N+]([O-])c1cc(-c2ccc(/C=N\n3cnnc3)o2)cc([N+](=O)[O-])c1
→ -4%	-1%
- COCC(=O)Nc1ccc(S(=O)(=O)N2CCCC2)cc1
→ -1%	-14%
- Nc1nccnc1C(=O)OCc1nc2sc3c(c2c(=O)[nH]1)CCCC3
→ 3%	-14%
- O=C(NNC(=O)c1ccc(Br)o1)c1csc(N2CCOCC2)n1
→ -7%	i
- COC1=C(Br)C(=O)c2ncccc2C1=O
→ -5%	-9%
- COc1ccc(S(=O)(=O)Nc2c(C)ccc3nsnc23)cc1OC
→ -32%	x
- C/C(=N\Nc1ccc(Cl)c(C(=O)O)c1)c1ccc(N2CCOCC2)cc1
→ -13%	-9%
- COc1ccc(OCC(=O)NNC(=O)C(=O)Nc2ccc(C)cc2)cc1
→ -10%	-10%
- Cc1ccc2occ(C(c3nnnn3C3CCCC3)N3CCN(C(=O)c4ccco4)CC3)c(=O)c2c1 (configuration not stated)
→ -17%	-9%
- Cc1cc(C)n2nc(C(=O)Nc3ccc4c(c3)OCO4)nc2n1
→ -15%	x
- NS(=O)(=O)c1ccc(CCNC(=O)CN2C(=O)c3ccccc3S2(=O)=O)cc1
→ -5%	-13%
- OC(c1ccccc1)c1nc(-c2cc3ccccc3o2)cs1 (configuration not stated)
→ -5%	i

Next part:
Sequence of screens – Vaccinia Venus	Vaccinia mCherry
- CCOCCCNC(=O)c1c[nH]c2cc(OC)ccc2c1=O
→ -18%	-21%
- Cn1cc([C@]2(O)C(=O)Nc3ccc(Br)cc32)c2ccccc21
→ -16%	-20%
- Cc1nnc(N(C)C(=O)c2cccnc2)s1
→ -10%	-12%
- C=C(C)[C@@H]1CC[C@]2(C(=O)O)CC[C@]3(C)C(CCC4[C@@]5(C)CC[C@H](O)C(C)(C)C5CC[C@]43C)C12 (some centres not stated)
→ -24%	-27%
- Cc1ccc(C)c(NC(=O)CN(C)C(=O)Cn2c(=O)oc3ccccc32)c1
→ -6%	-19%
- O=C(CCN1C(=O)/C(=C/c2ccc(F)cc2)SC1=S)NC1CCS(=O)(=O)C1 (configuration not stated)
→ 1%	-22%
- CCOC(=O)C1CCCN(c2nc3ccccc3nc2C(C#N)C(=O)OC(C)COC)C1 (configuration not stated)
→ -8%	-12%
- COc1ccc(C)cc1S(=O)(=O)Nc1ccncc1
→ -1%	-13%
- Cc1cccc(C(=O)OCc2cnc(Cl)s2)c1
→ -8%	x
- CC(C)Nc1nc(NC(C)C)nc(Nn2cnnc2)n1
→ 1%	-4%
- O=C(CSc1nc2ncc(Cl)cc2[nH]1)c1ccc2c(c1)OCO2
→ -5%[7.34 µM]	-4%[7.34 µM]
- COc1ccccc1N1CCN(S(=O)(=O)c2ccc(F)c(C(=O)Nc3ccc(C)c(F)c3)c2)CC1
→ -20%	-19%
- CCCCCC1=C(C(=O)OC)C(C(=O)OCC)N(S(=O)(=O)C(F)(F)F)c2ccccc21 (configuration not stated)
→ -16%	i
- CCOc1ccc(/C=C\C(C)=N\O)cc1
→ -18%	-26%
- CC(C)C(NC(=O)c1ccc(Cl)cc1Cl)C(=O)N1CCC1 (configuration not stated)
→ -2%	i
- Cc1cc(NS(=O)(=O)c2ccc(NC(=O)COc3ccc(C#N)cc3)cc2)nc(C)n1
→ -8%	-11%
- Cc1ccccc1Cn1c2ccccc2c2cnn(CC(=O)NCc3cccc(Cl)c3)c(=O)c21
→ -12%	-20%
- Cc1[nH]n(-c2ccccc2)c(=O)c1CCO
→ -9%	i
- O=C(c1ccc2ccccc2c1)N1CCN(c2ccc([N+](=O)[O-])c(N3CCOCC3)c2)CC1
→ -3%	-11%
- CCOC(=O)Cn1c(=O)n(CC2CCCO2)c2nc(-c3c(F)cccc3Cl)nc(C(N)=O)c21 (configuration not stated)
→ 2%	0%

Sorted by molecular weight (low to high): part of the list above
Sequence of screens – Vaccinia Venus	Vaccinia mCherry
- CC(C)Nc1nc(NC(C)C)nc(Nn2cnnc2)n1
→ 1%	-4%
- O=C(CSc1nc2ncc(Cl)cc2[nH]1)c1ccc2c(c1)OCO2
→ -5%[7.34 µM]	-4%[7.34 µM]
- COc1ccccc1N1CCN(S(=O)(=O)c2ccc(F)c(C(=O)Nc3ccc(C)c(F)c3)c2)CC1
→ -20%	-19%
